Cruzain inh noDet = qHTS Assay for Promiscuous and Specific Inhibitors of Cruzain (without detergent). purified cruzain, Z-FR-AMC fluorescence, no detergent. Cruzipain (Trypanosoma cruzi), P25779. Potency, µM, inactives show max response, negative = inhibition, actives largely listed as inhibitors. hit rate 2.3% among 200,000;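 note: plate controls were enzyme without inhibitor for no effect and buffer without enzyme for full effect; nearly all actives have a fitted effect of over 40% in size; top concentration of the series not given in the record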
Target sequence (P25779 123-467 limits assumed): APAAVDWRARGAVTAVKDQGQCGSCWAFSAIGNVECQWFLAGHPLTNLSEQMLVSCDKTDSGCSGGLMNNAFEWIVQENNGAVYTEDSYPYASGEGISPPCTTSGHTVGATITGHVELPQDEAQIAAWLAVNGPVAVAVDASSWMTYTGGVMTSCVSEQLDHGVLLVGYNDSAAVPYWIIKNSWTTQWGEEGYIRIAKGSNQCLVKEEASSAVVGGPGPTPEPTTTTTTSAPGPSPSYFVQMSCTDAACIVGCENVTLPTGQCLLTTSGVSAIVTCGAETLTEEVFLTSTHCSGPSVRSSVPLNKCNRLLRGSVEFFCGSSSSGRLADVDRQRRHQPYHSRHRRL
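Detergent-free condition (0.00005% Triton X-100) in acetate buffer pH 5.5 with DTT. 1.5 nM enzyme and compound were pre-mixed 15 min, then 2 uM Z-FR-AMC substrate added; reaction progress from fluorescence change between first and third reads (60 s).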
NS1 function inh = qHTS Assay for Inhibitors of Influenza NS1 Protein Function; S. cerevisiae slowed by influenza A NS1, growth recovery by OD600; Potency, µM (series often up to 46.1 µM), inactives show top-dose activity, positive = more growth; hit rate 0.4% among 270,000; AID 2326, 2010; active means well fitted rising curve with a large enough effect; inconclusive means small, poorly fitted or top-dose-only effect; inactive means no such curve, though single readings can be large or run the other way; note: nearly all actives have a fitted effect of over 50% in size
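Growth recovery, yeast-based: influenza A NS1 expressed in S. cerevisiae causes slow growth, and suppressors are detected by OD600. The parent strain without NS1 is used as positive control.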
Marburg entry inh = qHTS for inhibitors of binding or entry into cells for Marburg Virus; Marburg virus pseudotyped entry inhibition, cell reporter; control for the full effect not named in the record; about a third of the inactives were read at about 46 µM; Potency, µM (doses to about 37.8 µM), inactives show at the highest dose activity change, negative = inhibition, actives largely listed as inhibitors; hit rate 1.8% among 300,000; active = well fitted inhibition curve with a large enough effect; inconclusive = small, poorly fitted or top-dose-only effect, or effect the other way; inactive = flat fitted curve, though single readings scatter; tested in HEK293 cells; about a fifth of its hits are not listed in these tables; note: % is set by controls: 0 for no effect and ±100 for the full control effect; luciferase read-out
StopGo reporter = High Throughput Screening for Foot and Mouth Disease Virus Antivirals; human cells with a luciferase reporter of 2A StopGo recoding; control for the full effect not named in the record; Potency, µM (series often up to 57.9 µM), inactives show at the top dose signal change, negative = less light; hit rate 1.2% among 410,000; AID 1159524, 2015; active = well fitted falling curve with a large enough effect; inconclusive = small, poorly fitted or top-dose-only effect; inactive = no such curve, though single readings can be large or run the other way; tested in HEK293T cells; note: % is set by controls: 0 for no effect and ±100 for the full control effect; nearly all actives have a fitted effect of over 45% in size; luciferase light after 4 h
RE007 growth inh = qHTS Assay for Inhibitors of the HIV-1 protein Vpr. S. pombe RE007 Vpr strain, BacTiter-Glo ATP luminescence, 24 h; control for the full effect not named in the record. Potency, µM (top dose mostly 92.2 µM), without a hit: top-dose activity change, negative = less growth. hit rate 0.21% among 360,000. AID 651644, 2012; active = well fitted falling curve with a large enough effect; inconclusive = small, poorly fitted or top-dose-only effect; inactive = no such curve, though single readings can be large or run the other way;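 note: % is set by controls: 0 for no effect and ±100 for the full control effect; nearly all actives have a fitted effect of over 50% in size; the assay follows cell death caused by Vpr and the record does not say whether a fall means rescue or toxicity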
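Fission yeast strain RE007, carrying one chromosomally integrated HIV-1 vpr copy, was seeded at OD 0.01 in PMG+AL medium with 23 nL pinned compound. After 24 h at 30 °C and 99% humidity, viability was read by BacTiter-Glo luminescence.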
SARS PLP yeast = qHTS of Yeast-based Assay for SARS-CoV PLP. Potency, µM (highest dose often 32.9 µM), inactives show at the top dose activity, positive = growth rescue. AID 485353, 2010. hit rate 0.19% among 330,000. S. cerevisiae expressing SARS-CoV PLpro, growth rescue; control for the full effect not named in the record; active means well fitted rising curve with a large enough effect; inconclusive means small, poorly fitted or top-dose-only effect; inactive means no such curve, though single readings can be large or run the other way; note: 0% is about no effect; nearly all actives have a fitted effect of over 55% in size; growth read by luminescence after 48 h
Lassa entry inh = qHTS for Inhibitors of binding or entry into cells for Lassa Virus. Lassa virus pseudotype entry inhibition, cell reporter; control for the full effect not named in the record. Potency, µM (series often up to 37.9 µM), without a hit: top-dose activity change, negative = inhibition, most hits filed as inhibitors. hit rate 1.2% among 300,000. AID 540256, 2011; active means well fitted inhibition curve with a large enough effect; inconclusive means small, poorly fitted or top-dose-only effect, or effect the other way; inactive means flat fitted curve, though single readings scatter; tested in HEK293 cells; note: % is set by controls: 0 for no effect and ±100 for the full control effect; nearly all actives have a fitted effect of over 50% in size; luciferase read-out
Cruzain Triton = qHTS Assay for Promiscuous and Specific Inhibitors of Cruzain (with detergent); Cruzipain (Trypanosoma cruzi), P25779; AID 1478, 2009; hit rate 0.43% among 200,000; Potency, µM, without a hit: max response, negative = inhibition, usual class: inhibitors; purified cruzain, Z-FR-AMC fluorescence, 0.01% Triton;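 note: plate controls were neutral wells for no effect and buffer without enzyme for full effect; nearly all actives have a fitted effect of over 40% in size; top concentration of the series not given in the record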
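Detergent-containing arm of a paired screen for aggregation-based inhibition: 0.01% Triton X-100 present. Cruzain at 1.5 nM cleaved 2 uM Z-FR-AMC at pH 5.5 with 5 mM DTT; AMC fluorescence gain over 60 s measured activity.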
Numbers without * were called inactive; ? = inconclusive; nt = no result given; & = joins results of further samples; [ ] = remark or other dose. Unless noted, calls come from the whole dose curve; as a rule, active = well fitted curve in the direction sought with a large enough effect; inconclusive = small, poorly fitted or top-dose-only effect, or another doubt; inactive = no such curve, though single readings can be large; an effect the other way counts as inactive or inconclusive. Potency is the fitted concentration of half-maximal effect.

SMILES	Cruzain inh noDet	NS1 function inh	Marburg entry inh	StopGo reporter	RE007 growth inh	SARS PLP yeast	Lassa entry inh	Cruzain Triton
CCOC(=O)c1c(C)nc2c(c1-c1ccccc1)C(=O)CC(C)(C)C2	5%	-8%	1%	?	7%	-6%	3%	0.2%
CC(Sc1nc2ccccc2c(=O)n1CC1CCCO1)C(=O)N(C)Cc1ccccc1 (stereo unspecified)	nt	nt	8%	-11%	-4%	3%	8%	nt
CCC(C)C(NC(=O)OC(C)(C)C)C(=O)NC(C(=O)N1CCCC1C(N)=O)C(C)CC (stereo unspecified)	15%	-7%	?	-17%	32%	5%	6%	4.5%
O=S(=O)(NCc1nc2cccnc2n1Cc1ccccc1)c1ccc2c(c1)CCCC2	9%	nt	nt	-2%	nt	nt	-22%[46.1 µM]	-7.1%
Cc1cc(C)c2sc(NC(=O)c3ccc([N+](=O)[O-])o3)nc2c1	nt	-31%	nt	-18%	-13%	-33%	nt	nt
Cc1c(NC(=S)NC(=O)C2CCCCC2)c(=O)n(-c2ccccc2)n1C	-2%	-6%	18%	-8%	7%	11%	1%	-4.3%
CCN(CC(=O)Nc1ccc(Br)cc1)C(=O)Cc1cccc(F)c1	nt	-17%	?	16%	-2%	-3%	-6%[46.1 µM]	nt
CC(C)CN(C(=O)c1ccco1)c1nc2ccccc2s1	nt	-17%	13%[46.1 µM]	45%[activator]	-12%	-1%	21%	nt
Cc1cc(NC(=O)C2(c3ccccc3)CCCC2)no1	15%	-7%	1%&0%	-26%	-12%	-3%	15%	2.9%
Cc1ccc(NC(=O)CSc2nnc3[nH]c(=O)cc(-c4ccccc4)n23)cc1Cl	-22%	nt	nt	9%	nt	nt	25%[46.1 µM]	-0.5%
O=C(Oc1ccccc1)c1ccccc1OS(=O)(=O)c1ccccc1	-1%	-63%	2%	1%	15%	-11%	-5%	-3.2%
COc1ccccc1NS(=O)(=O)c1cccc(C(=O)N/N=C/c2ccc(N3CCOCC3)cc2)c1	?	-5%	0%	?	-19%	-5%	-5%	-6.7%
COC(=O)c1ccc(Cl)c(NC(=O)CN2CCN(Cc3ccccc3)CC2)c1	-2%	8%	0%	0%	5%	-2%	9%	2.2%
COc1ccc2oc(C(=O)OCC(=O)N3CCN(c4ccccc4)CC3)c(C)c2c1	nt	nt	11%	0%	-5%	-3%	?	nt
CC(=O)C(Cc1ccccc1)NC(=O)COC(=O)c1cccc(C)c1[N+](=O)[O-] (stereo unspecified)	nt	nt	-9%	-8%	-16%	1%	2%	nt
O=C(Nc1ccc(Cl)cc1)C(c1ccccc1)N(CCO)CCO (stereo unspecified)	-2%	-4%	16%	18%	4%	4%	3%	0.6%
Cc1ccc(NC(=O)[C@@H](CC(C)C)NC(=O)[C@@H]2Cc3ccccc3CN2)cc1	nt	5%	nt	?	-15%	3%	nt	nt
Cc1ccccc1OCCn1c(CCNC(=O)C(C)(C)C)nc2ccccc21	?	nt	2%[46.1 µM]	-12%	nt	nt	-12%[46.1 µM]	-3.3%
CCCCNC(=O)C(c1ccc(OCC(=O)OC)c(C(=O)OC)c1)N(CCc1ccccc1)C(=O)CCCCCN1C(=O)NC(c2ccc(-c3ccccc3)cc2)C(C(=O)OCc2ccccc2)=C1C (stereo unspecified)	-22%	?	nt	nt	nt	1%	nt	-1.2%
CCOC(=O)c1cnc2ccc(Cl)cc2c1NCCN(C)C	-13%	-15%	?	-17%	-5%	-20%	3%	-8.4%
CCc1nc2nc(C)cc(Nc3ccc(Br)cc3F)n2n1	-1%	nt	?	-18%	nt	nt	13%[46.1 µM]	1.4%
Cc1ccc(C(=O)COC(=O)c2cnccn2)cc1	-6%	-2%	?	20%	-2%	-1%	24%	0.7%
COc1cc(Br)cc(Br)c1OCC(=O)N/N=C/c1c(C)n(C)n(-c2ccccc2)c1=O	nt	12%	nt	-6%	0%	2%	nt	nt
CCCCCOc1ccccc1Cn1c(=O)oc2ccc(C)cc21	-15%	nt	-4%[46.1 µM]	-22%	nt	nt	?	-8.2%
CN(c1ccc(C(=O)NC2CCCC2)cc1)S(=O)(=O)c1ccccc1	nt	-32%	-2%[46.1 µM]	6%	10%	-4%	?	nt
COc1ccc(C2=CCCCCC2)c(OC)c1OC	nt	nt	12%[46.1 µM]	29%	-2%	nt	24%[46.1 µM]	nt
CC(C)(C)c1ccc(NC(=O)COC(=O)CCN2C(=O)c3cccc([N+](=O)[O-])c3C2=O)cc1	2%	1%	-1%	13%	-1%	-4%	nt	-7.7%
Cc1ccc(/C(O)=C2\C(=O)C(=O)N(C)C2c2cccc([N+](=O)[O-])c2)cc1 (stereo unspecified)	nt	2%	-1%[46.1 µM]	28%	-10%	0%	14%[46.1 µM]	nt
[O-]/[N+](=C\c1cccc(Br)c1)c1ccccc1	nt	nt	15%[46.1 µM]	17%	-14%	-1%	1%	nt
CN1CCN(c2ccccc2NC(=O)COc2ccc(C3CCCCC3)cc2)CC1	nt	13%	?	-11%	-2%	0%	-30%	nt
O=C(N/N=C/c1cccs1)C(O)c1ccccc1 (stereo unspecified)	nt	4%	nt	110%[activator]	3%	2%	nt	nt
Cc1ccc(N2CN(CCc3ccccc3)CNC2=S)cc1	nt	-1%	nt	6%	8%	0%	nt	nt
CCOC(=O)c1sc(NC(=O)Cc2ccc(F)cc2)nc1C	nt	nt	3%[46.1 µM]	-7%	-6%	-6%	-7%	nt
Cc1cccc(C)c1NC(=O)Cn1c(=O)n(CCC(=O)NCc2ccccc2Cl)c(=O)c2sccc21	-14%	nt	0%[46.1 µM]	36%[activator]	nt	nt	-12%[46.1 µM]	-3.2%
CCCCCC1CC(=O)N(Cc2ccccc2)C(=O)N1 (stereo unspecified)	-3%	-8%	-4%	-7%	29%	5%	15%	1.3%
CCCC12CN3CC(C)(CN(C1)C3c1ccco1)C2=O (stereo unspecified)	nt	nt	5%[46.1 µM]	7%	16%	0%	nt	nt
Cc1ccc(-n2ncc3c(NCCCN(C)C)ncnc32)cc1Cl	-6%	nt	nt	22%	nt	nt	?	-0.8%
Cc1ccc(-n2c(SCC(=O)N3CCOCC3)nnc2-c2ccncc2)cc1	-2%	-45%	-13%	5%	-7%	5%	0%	0.2%
Cc1cc(OCC(=O)Nc2ccc3c(c2)OCCO3)ccc1Cl	-19%	-74%	11%	0%	-22%	-33%	3%	-4.3%
O=C(CS(=O)(=O)c1cccc2nsnc12)Nc1ccccc1	7%	nt	nt	-7%	nt	nt	9%[46.1 µM]	-1.8%
C/C(=N/NC(=O)CNC(=O)CCc1ccccc1)c1ccc(Cl)c(Cl)c1	nt	-5%	nt	4%	0%	0%	nt	nt
CC(C)n1c(NCc2cc(Cl)ccc2O)nc2ccccc21	3%	-33%	nt	-4%	1%	13%	nt	-1.6%
CC(C)(C)C(=O)NCCN1CCN(C(=O)C(C)(C)C)CC1	-12%	6%	0%	-24%	-24%	12%	-15%	-0.2%
C=CCn1c(O)c(C(CC)=NCCN2CCN(C(=S)NC)CC2)c(=O)[nH]c1=O	nt	-5%	10%[46.1 µM]	-9%	8%	1%	0%[46.1 µM]	nt
O=c1c(C(c2ccccc2)c2c(O)nc3n(c2=O)CCS3)c(O)nc2n1CCS2	-10%	15%	28%	-11%	-9%	-5%	9%	-4.0%
COc1ccc(CNC(=O)CN2C(=O)NC(C)(c3cccc(Br)c3)C2=O)cc1 (stereo unspecified)	nt	-2%	nt	0%	-8%	1%	nt	nt
N#Cc1c(-c2ccccc2Cl)noc1/C=C/Nc1ccc(C(=O)O)cc1	nt	20%	17%	2%	2%	-4%	22%	nt
CC(C)CNS(=O)(=O)c1ccc(S(=O)(=O)N2CCC3(CC2)OCCO3)cc1	24%	11%	5%	5%	3%	?	-7%	1.4%
CCCCN(Cc1ccco1)C(=O)Cn1ncc2c(=O)oc3ccc(C)cc3c21	-5%	5%	3%	0%	8%	-3%	nt	1.9%
CNS(=O)(=O)c1ccc(Cl)nc1	2%	-8%	-25%	-24%	-4%	4%	2%	-0.9%
CC(C)(C)C(=O)Cn1c(=O)n(CCCCCC(=O)NCc2ccc3c(c2)OCO3)c(=O)c2sccc21	14%	nt	13%[46.1 µM]	-12%	nt	nt	28%[46.1 µM]	-2.5%
Cc1ccnc(-n2c(CCN3C(=O)c4ccccc4C3=O)nc3ccccc3c2=O)c1	-3%	-9%	-18%	41%[activator]	-7%	1%	0%	-5.9%
Cc1ccc(C(=O)Nn2c(O)c(C=C3N=c4ccccc4=N3)sc2=S)cc1	0%	5%	-9%	9%	-7%	-1%	-11%	-2.6%
CCOc1ccc(Nc2nc3c(S(=O)(=O)c4ccc(CC)cc4)nnn3c3ccc(Cl)cc23)cc1	-14%	nt	?	14%	nt	nt	nt	-0.2%
Cc1ccccc1-n1ncc2c1CC(C)(C)CC2NC(=O)CCN1CCCCC1=O (stereo unspecified)	nt	-1%	24%[46.1 µM]	3%	3%	-5%	-2%[46.1 µM]	nt
COc1ccc(-n2c(N)c(C(=O)NCC3CCCO3)c3nc4ccccc4nc32)c(OC)c1 (stereo unspecified)	?	-58%	?	?	10%	0%	?	-8.0%
Cc1ccc(NC(=O)CCCn2c(=O)c3cccn3c3cccnc32)c(C)c1	10%	nt	nt	8%	nt	nt	-14%[46.1 µM]	0.0%
COc1ccc(NS(=O)(=O)c2ccc(N3CCCC3)c(NC(=S)Nc3cccc(C)c3C)c2)cc1	?	26%	?	19%	-15%	-11%	-28%	-17%
COc1ccccc1NC(=O)c1cccs1	1%	-10%	18%	19%	-20%	5%	?	-5.4%
COc1cc(OC)c(NC(=O)CN(C)S(=O)(=O)c2ccc3[nH]c(=O)oc3c2)cc1Cl	nt	8%	nt	2%	-10%	-4%	nt	nt
O=C(Nc1ccc(F)cc1)N1CCN(c2ncccn2)CC1	nt	1%	nt	8%	0%	0%	nt	nt
CCOC(=O)CC1CCCCN1C(=O)c1ccc2nc(CCOC)oc2c1 (stereo unspecified)	nt	0%	nt	28%	-12%	14%	nt	nt
O=C(Nc1nnc(SCC(=O)N2CCCCC2)s1)c1ccc(F)cc1F	nt	-13%	-3%[46.1 µM]	19%	0%	3%	-15%[46.1 µM]	nt
